Mtb betalactam: beta-lactam sensitization of Mtb H37Rv; M. tuberculosis H37Rv growth with meropenem, percent inhibition; hits of this screen are not shown here; AID 434955; inhibition, % at 25 µM; hit rate 0.27% among 330,000;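 active = about 74% or more and at least 40 points above the plate without the antibiotic, then above 30% in a dose series; inconclusive = first-round hits that could not be retested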;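 also: growth measured after seven days incubation then overnight dye step; 0% = bacteria only wells and 100% = bacteria with antibiotic; twin plates without the antibiotic show which effects depend on it; some results filed as inactive read as strong as hits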
RecA intein inh: blocks M. tuberculosis RecA intein splicing; AID 2221; inhibition, %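 (about 9 µM by stock and volumes)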; hit rate 0.75% among 290,000; P9WHJ3; cell-free RecA intein splicing, fluorescence; in the data active = inhibition above about 30%; inconclusive = no clear call, values can overlap the other calls;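 also: 0% = vehicle wells and 100% = reference inhibitor control wells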
Target sequence (P9WHJ3 whole entry, looked up): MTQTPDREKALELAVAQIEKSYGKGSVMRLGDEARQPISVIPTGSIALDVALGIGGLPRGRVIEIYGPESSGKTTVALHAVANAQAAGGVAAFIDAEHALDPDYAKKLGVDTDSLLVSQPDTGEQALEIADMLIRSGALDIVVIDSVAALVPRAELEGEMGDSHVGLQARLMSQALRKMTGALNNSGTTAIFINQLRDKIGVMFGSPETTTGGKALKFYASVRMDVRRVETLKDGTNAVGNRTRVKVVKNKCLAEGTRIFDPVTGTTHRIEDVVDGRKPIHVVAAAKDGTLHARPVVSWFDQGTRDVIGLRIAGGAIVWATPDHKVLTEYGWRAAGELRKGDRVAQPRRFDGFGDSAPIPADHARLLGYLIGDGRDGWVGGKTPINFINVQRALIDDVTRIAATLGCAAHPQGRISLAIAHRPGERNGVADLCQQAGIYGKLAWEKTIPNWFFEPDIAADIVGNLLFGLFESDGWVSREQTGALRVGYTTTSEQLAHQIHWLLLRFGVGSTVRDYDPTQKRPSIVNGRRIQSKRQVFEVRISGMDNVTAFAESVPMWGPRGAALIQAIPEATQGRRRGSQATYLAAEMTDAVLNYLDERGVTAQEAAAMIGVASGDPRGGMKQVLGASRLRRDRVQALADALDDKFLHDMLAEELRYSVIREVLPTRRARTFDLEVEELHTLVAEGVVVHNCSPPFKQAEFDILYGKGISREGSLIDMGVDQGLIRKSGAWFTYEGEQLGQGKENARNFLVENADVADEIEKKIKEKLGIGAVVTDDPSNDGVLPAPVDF
Arbovirus anti: arbovirus infection inhibition; AID 1251; inhibition, % at 10 µM; arbovirus infection cell-based antiviral screen; hit rate 0.37% among 200,000;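 active = inhibition from about 30%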;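 also: bluetongue infection of BSR cells; cell survival read as ATP light after 72 h; 0% = infected wells without compound and 100% = uninfected wells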
YopH inh: YopH (Yersinia) phosphatase inhibition; fluorescence Ex485/Em525; inhibition, %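 (about 10 µM by stock and volumes)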; hit rate 0.16% among 140,000;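 active = inhibition of 50% or more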;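 also: controls were vehicle for no effect and minimum signal wells for full effect; inactives centre near -20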
Mtb growth: M. tuberculosis H37Rv growth inhibitors, H37Rv strain (AID 1626). M. tuberculosis H37Rv growth inhibition; higher % means a stronger effect. inhibition, % at 10 µM; hits with a dose series show IC50 in µM. hit rate 0.95% among 220,000;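 active = confirmed in a dose series; inconclusive = inhibition above 80% but not taken into the dose series; inactive = below 80% or under 30% at every dose of the series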;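 also: bacteria incubated seven days before Alamar blue readout; 0% = bacteria only wells and 100% = bacteria with antibiotic wells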
Arbovirus anti repeat: second read-out of Arbovirus anti, no call of its own (marks repeat the call); inhibition, %; measured here: 10K subset replicate screen; many hits read low in the repeat;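 first of two repeat runs on a subset; 0% = infected and 100% = uninfected wells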
An asterisk follows results filed as active; u = inconclusive; x = no result given.

SMILES	Mtb betalactam	RecA intein inh	Arbovirus anti	YopH inh	Mtb growth	others
Nc1nc2ccc(-c3nc4ccccc4o3)cc2s1	27.0	4.8	-9.8	-9.1	1.9%
CCCSc1nnc2c(n1)OC(c1cccn1C)N(C(C)=O)c1ccccc1-2 (configuration not stated)	11.3	-1.5	-3.6	-38.5	-1.1%	Arbovirus anti repeat=-3.0
CSc1ccc(S(=O)(=O)N2CCC(C(=O)NC3CC3)CC2)cc1	2.6	2.3	x	x	x
CC(Sc1nc2c([nH]c3ccccc32)c(=O)n1C)c1ccccc1 (configuration not stated)	-1.0	0.4	15.4	x	2.4%
N#Cc1ccccc1OCC(=O)N(C1CCCCC1)C1CCS(=O)(=O)C1 (configuration not stated)	-6.2	3.8	x	x	x
CCOc1ccc(NC(=O)Cn2cncc2-c2ccc([N+](=O)[O-])cc2)cc1	-6.7	2.5	10.1	-9.3	5.0%
CCN(CC)CCN(CC(=O)N(C1CCCCC1)C1CCCCC1)C(=O)c1ccco1	-0.9	1.0	20.6	x	-9.5%
CC1CCCC(C)N1C(=O)Cn1cc(C#N)c2ccccc21 (configuration not stated)	-2.6	1.9	4.6	x	-3.4%
COc1ccc(NC(=O)c2cc3ccccc3cc2O)cc1	5.0	-2.5	x	x	x
C/C(=N\Nc1cc(C)nc(-c2ccccc2O)n1)c1ccccc1O	64.9	0.9	x	x	64.4%
Cc1nc(N2CCC(C)CC2)c2c(C)c(C(=O)Nc3cc(F)ccc3C)sc2n1	-1.1	-2.1	-7.6	x	4.3%
CCOc1cc(NS(=O)(=O)CC)c(OCC)cc1NC(=O)c1ccco1	7.3	1.7	3.0	-32.9	-5.3%
O=C(NC1(C(F)(F)F)C(=O)Nc2c1c(=O)[nH]c(=O)n2-c1ccc(F)cc1)c1cccnc1 (configuration not stated)	4.8	1.0	-0.6	-147.6	-7.1%
CCCC1NC(=S)NC(C)=C1C(C)=O (configuration not stated)	-5.5	0.5	1.1	x	0.0%
Cc1cc(C)n2c(=S)[nH]nc2n1	5.6	-0.8	8.2	-37.4	-1.6%
Cc1c(OCC(=O)NCCN2CCOCC2)ccc2c1oc(=O)c1ccccc12	0.9	-0.4	x	x	x
O=C(Nc1ccc(Cl)cc1C(=O)Nc1ccncc1)c1ccco1	-0.1	-3.0	-24.4	-1.6	-3.1%
CC(OC(=O)CC1CCCCC1)C(=O)Nc1ccc(S(N)(=O)=O)cc1 (configuration not stated)	-5.2	-0.5	x	x	x
CCN(CC(=O)NCc1ccc(F)cc1)C(=O)COc1ccc2ccccc2c1	-2.3	10.1	-3.9	-18.0	-3.4%
CC(=O)OC1C(OC(C)=O)N(C(C)=O)C(=O)N1C(C)=O (configuration not stated)	21.5	-2.2	17.9	-41.5	-4.1%
COCCn1ccc(O)c(Cc2ccc(Cl)cc2)c1=O	-5.8	1.0	-5.1	-15.9	3.8%
COc1cccc(NC(=O)c2nnn(CC(=O)Nc3cc(C)cc(C)c3)c2N)c1	3.4	-0.7	x	x	x
OC(COc1ccc2ccccc2c1)Cn1ccnc1 (configuration not stated)	6.6	1.9	5.0	-33.7	51.7%
O=C(C1CCN(C2CCN(Cc3cccc4c3OCO4)CC2)CC1)N1CCOCC1	-10.1	-2.6	-1.0	x	2.9%
O=C(OCC(=O)N(CCc1ccccc1)Cc1ccccc1)c1ccccc1[N+](=O)[O-]	-11.1	18.8	x	x	x
COc1cc(-c2n[nH]c(=O)o2)cc(OC)c1OC	-2.3	-3.8	-0.6	-16.2	-6.1%
COc1cc(CNc2ncc(-c3ccc(Br)cc3)n2C)cc(OC)c1O	-1.0	-4.6	x	x	x
CCCOc1ccc(C(=O)O/N=C(\CC)c2ccc(C)cc2)cc1	73.9	3.1	0.3	-1.3	6.3%
Cc1ccc(CNS(=O)(=O)c2ccc3c(c2)CCN3C(=O)C2CCC2)cc1	-2.2	0.2	x	x	x
COC(=O)C(CO)NC(=O)C1CCCN1C(=O)CNC(=O)OCc1ccccc1 (configuration not stated)	5.2	-0.5	x	x	x
CCc1ccc(NC(=S)NC2CC3CCCC(C2)N3Cc2ccccc2)cc1 (configuration not stated)	6.7	3.5	-32.2	x	5.0%
CCCCC(NC(C)=O)c1nc2ccccc2n1CCCC (configuration not stated)	-9.3	-0.1	-1.0	-10.8	x	Arbovirus anti repeat=-3.8
CCOc1ccc(N2C(=O)NC(=O)/C(=C\c3ccccc3[N+](=O)[O-])C2=O)cc1	-1.9	0.5	x	x	x
CS(=O)(=O)N1CCN(c2ccc([N+](=O)[O-])c3cccnc23)CC1	-0.1	2.4	x	x	-2.5%
CC(=O)COc1ccc2c3c(c(=O)oc2c1C)CCCCC3	74.0	-0.4	1.6	-12.4	11.9%
CC1CCN(Cc2nnnn2CCCC(=O)NCC(C)(C)N2CCOCC2)CC1	-2.6	-4.2	x	x	x
O=C1Oc2ccccc2C(=O)/C1=C\N1CCN(c2ccccc2)CC1	-8.6	-3.3	11.2	x	7.0%
CCOc1ccc(S(=O)(=O)/N=C(/Nc2ccc(OC)cc2)c2ccccc2)cc1	-5.7	5.4	x	x	x
O=C(Nc1ccc(Cl)cc1F)c1cccc2ccccc12	85.0	2.3	x	x	x
C=CCc1cccc(/C=N/n2cnnc2)c1O	-4.1	-0.2	0.1	0.0	-3.4%
COc1ccc(C(=O)C2CCCN(Cc3ccc(NC(C)=O)cc3)C2)cc1OC (configuration not stated)	-5.2	-0.4	x	x	x
CCOC(=O)c1oc2cc(O)ccc2c(=O)c1-c1ccccc1OC	-4.5	0.8	5.5	-16.4	-7.1%	Arbovirus anti repeat=10.1
CC(=O)NNC(=O)c1[nH]c2ccc(Br)cc2c1-c1ccccc1	4.8	5.8	x	x	x
Cc1noc(C)c1COc1ccc(C(=O)Nc2ccccn2)cc1	u	0.0	x	x	x
O=C(CSc1nc(-c2ccc(F)cc2)nc2c1Cc1ccccc1O2)Nc1cccc(C(=O)O)c1	x	2.5	27.8	x	-0.3%
COC(=O)/C=C/c1ccccc1S(=O)(=O)N(Cc1ccccc1)Cc1ccco1	-9.6	7.3	x	x	8.2%
Cn1nc(-c2ccc(Cl)cc2)c2cc(C(=O)N3CCN(c4ccccn4)CC3)sc21	4.0	9.9	6.3	-9.3	2.49µM*	Arbovirus anti repeat=-0.1
O=C(NC(=S)Nc1ccc(C(F)(F)F)cc1)c1csnn1	59.1	-0.1	8.4	x	7.9%
CC1CCN(C(NC(=O)c2ccco2)C(=O)c2ccccc2)CC1 (configuration not stated)	2.1	2.5	2.5	-27.1	-11.4%
CCN1CCCC1CNC(=O)CSc1cc(=O)n(CC)c2ccccc12 (configuration not stated)	6.2	-4.4	-9.0	-53.0	-4.1%

(cont.)
SMILES	Mtb betalactam	RecA intein inh	Arbovirus anti	YopH inh	Mtb growth	others
CCC(CC)c1nnc(NC(=O)Cc2ccccc2[N+](=O)[O-])s1	2.8	0.4	-1.6	x	5.0%
CC(=O)Nc1ccc(S(=O)(=O)N(C)CC(=O)N/N=C/c2cccc(O)c2)cc1	-2.8	-1.9	3.0	x	-0.8%
Cc1ccccc1N(CC(=O)Nc1ccc(S(=O)(=O)N2CCOCC2)cc1)S(C)(=O)=O	4.1	-0.8	3.7	x	1.8%
COc1c(O)ccc(C2NC(=O)NC(C)=C2C(=O)Nc2ccccc2C)c1[N+](=O)[O-] (configuration not stated)	-3.6	4.1	2.9	x	-2.9%
CC1(C)Cc2c(sc(NC(=O)Cc3ccccc3)c2C#N)CO1	-7.3	-1.2	x	x	-0.6%
COc1ccc(CCNC(=O)COC(=O)c2ccc(Br)o2)cc1OC	-23.4	-0.5	-3.2	-26.6	-9.2%
COc1cccc(/C=N/NC(=O)c2cnccn2)c1O	x	1.0	x	x	-3.5%
CCCCn1c(N)c(N(CC(C)C)C(=O)c2cc3c(s2)CCC3)c(=O)[nH]c1=O	-17.9	-0.3	x	x	x
Cc1nc(Nc2ccccc2)sc1C(=O)c1ccccc1	0.3	-2.7	x	x	8.1%
Cc1cc(NC(=O)CCl)n(-c2nc3ccccc3s2)n1	91.0	6.5	11.2	x	16.8%
COCCCNC(=O)c1cc(-c2cccnc2)nc2ccccc12	-1.2	0.5	x	x	x
COc1ccccc1P(=O)(Cc1ccccc1[N+](=O)[O-])c1ccccc1 (configuration not stated)	-7.6	1.6	x	x	x
S=C(NCc1ccccc1)NCc1ccco1	0.2	4.2	x	x	x
O=C1CC(N(O)C2CC(=O)N(Cc3ccccc3)C2=O)C(=O)N1Cc1ccccc1 (configuration not stated)	-7.8	-2.2	-3.4	-16.9	-4.0%
S=C1NC2=C(CCCC2=C2SCCS2)C(c2ccccc2)N1 (configuration not stated)	-0.6	6.1	-1.0	x	3.6%
COc1cccc(C2c3c(-c4cc(Cl)c(C)cc4O)n[nH]c3C(=O)N2Cc2cccnc2)c1 (configuration not stated)	10.2	-5.0	-31.5	-13.0	-1.6%
CSc1ccc(/C=N/n2c(C3CCCCC3)n[nH]c2=S)cc1	4.5	9.9	x	x	x
CC1(C)c2ccccc2N2CC(=O)NC21/C=C/c1ccco1 (configuration not stated)	-3.6	8.0	3.8	1.4	-6.0%
O=c1cc(CN2CCN(c3ccccn3)CC2)nc2sccn12	-5.4	-2.0	3.2	x	5.5%
O=C(N/N=C/c1ccccc1OC(F)F)C1=COCCO1	0.6	0.3	20.8	x	-0.1%
O=C(O)CNC(=S)N(Cc1cccs1)C1CCCCC1	1.5	3.3	-0.2	-15.9	-7.4%
CCOc1ccc2nc(COC(=O)c3ccco3)c(C(C)=O)[n+]([O-])c2c1	-3.0	-2.7	4.9	-6.1	2.7%
CCn1c(C)c(C(C)=O)cc(C#N)c1=O	-3.2	2.5	6.1	x	7.6%
NC1=NC[C@H](c2ccccc2)N1CC1CCCCC1	-8.3	0.6	x	x	-6.3%
Oc1cnn(-c2ccccc2)c1	93.8	63.5*	-6.0	-18.1	>100µM*	Arbovirus anti repeat=-7.5
O=C(CSc1ccccn1)Nc1ccc2c(c1)CCC2	-2.1	1.1	x	x	x
Cc1ccc(C)c(OCCSc2nnc(C)c(=O)[nH]2)c1	-1.2	1.2	5.1	x	-2.7%
CCCOc1ccc(-c2c(C(=O)N/N=C/c3ccsc3)nnn2-c2nonc2N)cc1	10.4	-1.4	x	x	x
Cc1nnc(NC(=O)c2ccc(C)c(S(=O)(=O)N3CCOCC3)c2)s1	2.9	2.5	8.8	3.1	-12.2%
O=C(Nc1ccc(Cl)cc1)c1cc(S(=O)(=O)Nc2ccccn2)ccc1Cl	6.1	0.4	x	x	x

Retrieved one by one from the entries so far (5):
SMILES	Mtb betalactam	RecA intein inh	Arbovirus anti	YopH inh	Mtb growth	others
O=C(O)CNC(=S)N(Cc1cccs1)C1CCCCC1	1.5	3.3	-0.2	-15.9	-7.4%
CCCOc1ccc(-c2c(C(=O)N/N=C/c3ccsc3)nnn2-c2nonc2N)cc1	10.4	-1.4	x	x	x
Oc1cnn(-c2ccccc2)c1	93.8	63.5*	-6.0	-18.1	>100µM*	Arbovirus anti repeat=-7.5
O=C(Nc1ccc(Cl)cc1)c1cc(S(=O)(=O)Nc2ccccn2)ccc1Cl	6.1	0.4	x	x	x
NC1=NC[C@H](c2ccccc2)N1CC1CCCCC1	-8.3	0.6	x	x	-6.3%

Continuation:
SMILES	Mtb betalactam	RecA intein inh	Arbovirus anti	YopH inh	Mtb growth	others
O=C(CSc1nnc(-c2ccccc2Br)o1)N1CCN(C(=O)c2ccco2)CC1	98.0	x	-6.0	-51.8	u
Cc1cc(=O)oc2cc(OCC(=O)Nc3ccc(N4CCC(C)CC4)cc3)ccc12	-1.0	-1.3	x	x	x
Cc1nnsc1-c1c(C(=O)N2CCOCC2)c(C)nn1-c1ccc(Cl)cc1	0.4	0.1	x	x	3.6%
O=C1CCCN1CC(O)CS(=O)(=O)c1ccc(Cl)cc1 (configuration not stated)	10.9	-3.9	8.3	-28.9	-6.3%
CCOc1ccccc1OCCn1ncc2ccc(OC)c(OC)c2c1=O	-0.7	-1.4	0.1	22.7	6.4%
Cc1cccc(NS(=O)(=O)c2ccc3nc(-c4ccccc4)[nH]c3c2)c1C	2.7	0.4	4.5	-20.5	-13.0%

As a short view, 3 of the compounds above:
SMILES	Mtb betalactam	RecA intein inh	Arbovirus anti	YopH inh	Mtb growth	others
O=C1CCCN1CC(O)CS(=O)(=O)c1ccc(Cl)cc1 (configuration not stated)	10.9	-3.9	8.3	-28.9	-6.3%
CCOc1ccccc1OCCn1ncc2ccc(OC)c(OC)c2c1=O	-0.7	-1.4	0.1	22.7	6.4%
Cc1cccc(NS(=O)(=O)c2ccc3nc(-c4ccccc4)[nH]c3c2)c1C	2.7	0.4	4.5	-20.5	-13.0%

Bioassay records (PubChem)

This is a subset; count on the stated rates, not on these rows.
